# Screens deposited in PubChem BioAssay by National Center for Advancing Translational Sciences (NCATS).
# gsp ag – activates gsp, the McCune-Albright syndrome mutation | gsp mutant cells, cAMP HTRF, 30 min; control for the full effect not named in the record | AID 624287 | Potency, µM (doses to about 76.9 µM), for inactives: at the top dose activation (cAMP increase), hits mostly activators | hit rate 0.13% among 340,000; active = well fitted activation curve with a large enough effect; inconclusive = small, poorly fitted or top-dose-only effect, or another doubt; inactive = no such curve, though single readings can be large or run the other way; cell line not stated here;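 further: phosphodiesterase inhibitor Ro 20-1724 added with compounds to block cAMP breakdown; potency means the concentration at half of the fitted maximal effect; nearly all actives have a fitted effect of over 60% in size; about a fifth of the inactives were tested at one dose only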
#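 Cells stably selected in G418 were plated at 2000/well, grown 16-24 hr, then given compounds in DMSO with the PDE inhibitor […] (300 uM solution added) for 30 min at 37C; cAMP was read by HTRF.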
# Sfp inh – Sfp phosphopantetheinyl transferase inhibition | Q9F4F7 | AID 1490 | hit rate 3.5% among 310,000 | Biochemical Sfp PPTase activity, qHTS | Potency, µM, for inactives: max response, negative = inhibition, usual class: inhibitors; active means well fitted inhibition curve with a large enough effect; inconclusive means small, poorly fitted or top-dose-only effect, or another doubt; inactive means no such curve, though single readings can be large or run the other way;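 further: the enzyme is Sfp with the accession as filed and its product quenches rhodamine fluorescence; potency means the concentration at half of the fitted maximal effect; 0% = enzyme reaction without inhibitor and -100% = no enzyme wells; top concentration of the series not given in the record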
#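 Reaction rates are the 30-min fluorescence difference (ex 525, em 598 nm) in wells containing 15 nM Sfp, 5 uM rhodamine-CoA and 12.5 uM BHQ-2-YbbR at pH 7.6 with 10 mM MgCl2.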
# gsp antagonist – gsp mutant antagonism. AID 624288. gsp-mutant cells, cAMP HTRF, 30 min; control for the full effect not named in the record. Potency, µM (titrated, usually from 76.9 µM), inactives show at the top dose activity change, negative = inhibition, actives largely listed as inhibitors. hit rate 0.4% among 340,000; active = falling curve of any shape with a large fitted effect; inconclusive = falling curve, mostly with a smaller effect; inactive = flat or rising curve; cell line not stated here;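 further: intracellular cAMP measured with PDE inhibitor Ro 20-1724 present during compound exposure; potency means the concentration at half of the fitted maximal effect; on the % scale 0 is the no-effect control and ±100 the full control effect; nearly all actives have a fitted effect of over 65% in size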
#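 G418-selected cells were plated in DMEM/10% FBS for 16-24 h at 37C, then treated with compounds plus the PDE inhibitor […] (300 uM solution added) for 30 min at 37C. Intracellular cAMP was measured by HTRF after 30 min lysis at room temperature.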
# Menin-MLL FL inh – menin-MLL binding inhibition, fluorescein peptide; Fluorescence polarization, fluorescein-MLL peptide displacement from menin; FP activity change, % at 61.4 µM; 290,000 tested, under 10 active; inconclusive = falling polarisation curve, or a change in total fluorescence; inactive = total fluorescence flat and polarisation flat or rising; no compound was filed as active; the % refers to the polarisation; negative = inhibition;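 further: % of control where 0% means no effect; inhibitors lower the polarisation; unlabelled MLL peptide was the positive control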
# TRPV1 PAM – human TRPV1 potentiation; TRPV1-expressing cells, Fluo-8 calcium influx, capsaicin EC20 potentiation; host cell line not named in the record; control for the full effect not named in the record; hit rate 0.02% among 320,000; Q8NER1; potentiation, % at 8.33 µM; AID 540277; active means potentiation above 80%; inconclusive means 30% to 80%; inactive means below 30%; further: 0% is about no effect
# Target sequence (Q8NER1 whole entry, looked up): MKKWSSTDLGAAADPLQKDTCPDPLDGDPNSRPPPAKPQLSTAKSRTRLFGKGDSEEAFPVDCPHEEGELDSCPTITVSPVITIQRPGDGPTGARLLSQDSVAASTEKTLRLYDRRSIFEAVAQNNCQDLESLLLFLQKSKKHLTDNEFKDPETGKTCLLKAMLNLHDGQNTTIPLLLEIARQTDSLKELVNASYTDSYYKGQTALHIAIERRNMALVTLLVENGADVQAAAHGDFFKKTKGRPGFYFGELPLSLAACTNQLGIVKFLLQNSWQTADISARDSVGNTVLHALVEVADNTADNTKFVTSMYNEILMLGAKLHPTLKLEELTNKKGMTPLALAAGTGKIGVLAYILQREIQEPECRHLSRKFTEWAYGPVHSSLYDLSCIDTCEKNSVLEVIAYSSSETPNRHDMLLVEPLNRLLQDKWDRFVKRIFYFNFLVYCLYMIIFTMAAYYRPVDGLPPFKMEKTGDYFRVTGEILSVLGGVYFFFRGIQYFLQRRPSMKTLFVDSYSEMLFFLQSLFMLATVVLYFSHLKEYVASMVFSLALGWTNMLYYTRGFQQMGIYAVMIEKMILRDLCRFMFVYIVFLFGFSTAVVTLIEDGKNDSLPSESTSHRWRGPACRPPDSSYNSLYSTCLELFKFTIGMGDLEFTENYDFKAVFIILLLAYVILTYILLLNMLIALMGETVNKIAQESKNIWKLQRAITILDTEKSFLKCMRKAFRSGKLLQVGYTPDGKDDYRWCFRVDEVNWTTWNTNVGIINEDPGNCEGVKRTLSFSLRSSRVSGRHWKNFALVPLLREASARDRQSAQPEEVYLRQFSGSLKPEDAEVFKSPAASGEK
#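 Fluo-8 calcium influx in TRPV1-expressing cells, kinetic read (ex 480/em 520 nm). Compound added and read 3 min for agonist activity, followed by capsaicin at EC20 final and 2 min further read for enhancement.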
# ClpP mod – qHTS Assay for Activators of ClpP | ATP-dependent Clp protease proteolytic subunit (Bacillus subtilis (strain 168)), P80244 | purified B. subtilis ClpP, FRET peptide cleavage, 20 min | Potency, µM (titrated, usually from 57.5 µM), without a hit: at the highest dose activity change, negative = active | hit rate 1.9% among 340,000 | AID 651965, 2013; active = well fitted falling curve with a large enough effect; inconclusive = small, poorly fitted or top-dose-only effect; inactive = no such curve, though single readings can be large or run the other way; further: potency means the concentration at half of the fitted maximal effect; the source files actives as falling curves though it sought activators and does not explain the sign; nearly all actives have a fitted effect of over 65% in size; many hits overshoot -100%
# Target sequence (P80244 whole entry, looked up): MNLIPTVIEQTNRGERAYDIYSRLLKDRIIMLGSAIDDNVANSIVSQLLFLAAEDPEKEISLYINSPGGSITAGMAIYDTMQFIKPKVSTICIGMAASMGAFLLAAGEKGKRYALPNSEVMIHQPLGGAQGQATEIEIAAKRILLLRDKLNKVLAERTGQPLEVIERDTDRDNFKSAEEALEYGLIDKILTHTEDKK
#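 Buffer: 100 mM Tris/HCl pH8, 100 mM KCl, 0.05% low protease BSA, 2.5% glycerol, 0.01% Tween-20. ClpP 10 microg/mL final; 20 min RT; delta FRET normalized to ADEP and DMSO controls.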
# CtBP-E1A blk – CtBP/E1A binding inhibition; AlphaScreen GST-E1A/His-CtBP binding, 1536-well; active compounds read low; control for the full effect not named in the record; activity change, % (concentration not given with the values); hit rate 0.49% among 340,000; AID 651724; in the data active means activity change below about -65%; inconclusive means about -30% to -65%; inactive means above about -30%; further: on the % scale 0 is the no-effect control and ±100 the full control effect
#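 Homogeneous bead-based format: GST-tagged E1A captured on glutathione donor beads, His-tagged CtBP on nickel acceptor beads; compounds precede bead addition by 2 h at 37 °C.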
# Numbers without * were called inactive; ? = inconclusive; nt = no result given; [ ] = dose if it differs, or a comment.
SMILES,gsp ag,Sfp inh,gsp antagonist,Menin-MLL FL inh,TRPV1 PAM,ClpP mod,CtBP-E1A blk
Cc1cccc(C(=O)O/N=C(/c2ccccc2)c2ccncc2)c1,-13%[15.4 µM],6%,-23%,-1.1,-7,-3.2%,-9
Cc1onc(-c2c(Cl)cccc2Cl)c1C(=O)NN1CCCCCC1,-5%[15.4 µM],16%,-14%,1.0,0,nt,3
COc1ccc(Oc2nc3ccccc3n(C)c2=O)cc1,8%,17%,7%,0.6,16,-7.7%,3
Cc1ccc(NC(=O)c2ccc(S(=O)(=O)N(C)c3ccccc3)cc2)cc1S(=O)(=O)N1CCOCC1,12%,nt,-9%,nt,nt,-9.6%,-2
COc1ccccc1NS(=O)(=O)c1ccc2[nH]c(=O)[nH]c2c1,-1%[15.4 µM],-4%,8%,3.7,-2,1.5%,8
Cc1ccc(OCC(=O)N2c3ccccc3CC2C)c([N+](=O)[O-])n1 (stereo not given),-3%,-6%,-4%,-0.1,-7,0.5%,nt
COc1ccc(NC2CCCN(C(=O)c3cn(C)c4ccccc34)C2)cc1 (stereo not given),13%,11%,-3%,4.0,0,-0.9%,-10
O=[N+]([O-])c1ccc(Cl)c(NC(=S)N2CCCC2)c1,0%,-1%,5%,-11,-5,nt,-1
Cc1ccc(-c2nc(S(=O)(=O)c3ccc(C)cc3)c(SCC(=O)NCC3CCCO3)o2)cc1 (stereo not given),4%,3%,-7%,4.8,-1,nt,4
CCOC(=O)Cn1cnc2c(nnn2-c2cccc(Cl)c2)c1=O,?,12%,5%,-0.5,-5,-1.5%,2
Cc1noc(NS(=O)(=O)c2ccc(NC(=O)CSc3nc4c(cc3C#N)CCCC4)cc2)c1C,28%,?,6%,4.6,nt,2.2%,-5
CC(=O)Nc1ccc(NC(=O)c2nc(S(=O)(=O)Cc3cccc(C)c3)ncc2Cl)cc1,-15%[15.4 µM],-3%,-25%,nt,3,nt,-3
CC(C)(c1ccccc1)c1ccc(OCC2CO2)cc1 (stereo not given),0%[15.4 µM],7%,nt,0.0,-3,nt,37
CCC1(c2ccccc2)NC(=O)N(CC(=O)NCc2ccccc2OC)C1=O (stereo not given),-36%[inhibitor],15%,0%,-0.9,-18,nt,5
CCNS(=O)(=O)c1ccc(C(=O)OCC(=O)N2CCCc3ccccc32)cc1,1%,nt,-1%,nt,11,-1.2%,4
CC(=O)O[C@H]1[C@H](O)[C@H](Oc2c(O)c(C)c3c4c2[C@@H](C)CC[C@@H]4[C@@H](C)C[C@H]3C=C(C)C)O[C@@H](C)[C@H]1O,nt,nt,1%,nt,nt,-2.8%,0
CCOc1cc(C(=O)Nc2cccc(C(C)=O)c2)ccc1OCC(=O)N1CCCCC1,3%[15.4 µM],13%,-10%,-1.2,11,nt,-8
O=C(NCc1cn(-c2ccccc2)nc1-c1ccccc1)c1cccc([N+](=O)[O-])c1,-25%,16%,-12%,0.6,-3,0.6%,nt
Cc1ccc(C)c(C(=O)CCC(=O)OCn2nnc3ccccc3c2=O)c1,9%,nt,-2%,nt,-6,-3.0%,0
CC1(C)C(=O)C2(CCCCC2)C(=O)OC1c1cccc([N+](=O)[O-])c1 (stereo not given),-16%,4%,5%,1.0,-6,nt,-19
OCCCc1nc2n(n1)C(c1ccccc1)C=C(c1ccccc1)N2 (stereo not given),24%,-6%,-8%,?,-17,5.2%,2
CCc1ccccc1NC(=O)CN(C)S(=O)(=O)c1ccc2c(c1)c(=O)n(C)c(=O)n2C,9%,14%,-8%,0.9,4,-5.5%,-2
COc1ccc(S(=O)(=O)N2CCCCCC2)cc1C(=O)N(C)Cc1ccc(C(C)(C)C)cc1,-8%[15.4 µM],1%,?,nt,-14,nt,-6
CCc1nnc(NC(=O)CSc2nnc3c(C)cc4c(C)ccc(C)c4n23)s1,-2%,-7%,-8%,1.1,-5,?,6

# Entries of single compounds as entered above. Order of screens: gsp ag, Sfp inh, gsp antagonist, Menin-MLL FL inh, TRPV1 PAM, ClpP mod, CtBP-E1A blk
# CC(=O)O[C@H]1[C@H](O)[C@H](Oc2c(O)c(C)c3c4c2[C@@H](C)CC[C@@H]4[C@@H](C)C[C@H]3C=C(C)C)O[C@@H](C)[C@H]1O reads nt, nt, 1%, nt, nt, -2.8%, 0
# CC(C)(c1ccccc1)c1ccc(OCC2CO2)cc1 (stereo not given) reads 0%[15.4 µM], 7%, nt, 0.0, -3, nt, 37

# The results go on.
SMILES,gsp ag,Sfp inh,gsp antagonist,Menin-MLL FL inh,TRPV1 PAM,ClpP mod,CtBP-E1A blk
COCCNC(=S)Nc1ccc(S(=O)(=O)Nc2ncccn2)cc1,-2%[15.4 µM],?,10%,-2.1,?,nt,-6
COc1cccc(CNC(=O)c2ccccc2NC(=O)C2=C(C)OCCS2)c1,-5%,9%,11%,nt,-1,2.0%,-14
Cc1nc(N)nc(N)c1-c1ccc([N+](=O)[O-])cc1,-31%[inhibitor],nt,0%,nt,nt,1.4%,-1
O=C(Nc1cccc(S(=O)(=O)N2CCCCC2)c1)c1ccc([N+](=O)[O-])o1,28%,12%,9%,-2.1,-1,0.0%,-19
Cc1onc(-c2c(Cl)cccc2Cl)c1C(=O)Nc1ccc(C(N)=O)cc1,12%,21%,1%,2.1,1,nt,5
Cc1ccc(NC(=O)C(C)Sc2nnc3ccccn23)cc1 (stereo not given),-1%,nt,6%,nt,nt,-11%,nt
Cc1cccc(C(=O)Nc2cccc(C(=O)N/N=C/c3ccccn3)c2)c1,1%,-15%,-1%,0.9,8,-4.7%,nt
c1ccc(CCc2nc(-c3cccnc3)no2)cc1,-13%,14%,0%,6.4,-9,2.1%,3
CN(CC(=O)Nc1ccc(Cl)cc1)S(=O)(=O)c1ccc2c(c1)n(C)c(=O)c(=O)n2C,17%,14%,13%,nt,-13,3.7%,9
COc1ccc(C(=O)c2sc3nc(-c4ccc(OC)cc4)ccc3c2N)cc1,28%,-28%,0%,?,8,nt,23
O=C(O)CSC(C(=O)Nc1ccc(Br)cc1)c1ccc(Cl)cc1 (stereo not given),-8%,27%,-15%,-6.1,-5,nt,0
Cc1cccc2sc(N(CCCN(C)C)C(=O)CN3C(=O)c4ccccc4C3=O)nc12,28%,-15%,7%,-3.1,?,3.6%,0
O=C(O)c1cccc(S(=O)(=O)Nc2ccc(Cc3ccncc3)cc2)c1,-14%[15.4 µM],nt,8%,nt,nt,1.6%,8
Cc1ccc(S(=O)(=O)CC(O)COc2ccc(F)cc2Cl)cc1 (stereo not given),-2%[15.4 µM],-2%,0%,-0.1,4,-1.6%,-18
COC(=O)CSCc1nc2ccccc2[nH]c1=O,20%,-29%,4%,8.4,1,?,-15
NC(=O)c1c(NC(=O)c2cccnc2)sc2c1CCCCC2,-4%,-13%,2%,-0.3,?,-4.5%,nt
COCCCNC(=O)Cc1coc2ccc3ccccc3c12,9%[15.4 µM],10%,-11%,1.4,-1,?,6
CC(C)(CNC(=O)Cc1ccc(Br)cc1)N1CCOCC1,0%[15.4 µM],10%,6%,nt,7,nt,0
CC1CCN(c2ccc([N+](=O)[O-])cc2C(=O)NCC2CCCO2)CC1 (stereo not given),-37%[inhibitor],7%,-3%,-5.6,-6,-3.0%,0
COc1cccc(C2C(C(=O)OC(C)C)=C(C)N=c3s/c(=C\c4ccc(C(=O)O)cc4)c(=O)n32)c1 (stereo not given),-22%[15.4 µM],-24%,-14%,-1.3,-20,nt,-10
Cc1nc2ncnn2c(C)c1CCC(=O)N1CCc2ccccc21,?,16%,7%,2.5,-14,1.2%,1
COc1ccc(OC)c(CN2CCN(c3ccc(S(=O)(=O)N4CCCC4)cn3)CC2)c1,7%,nt,-10%,nt,12,-6.2%,-11
CCCCSc1nc(CCC)cc(=O)[nH]1,1%,5%,3%,0.6,15,-1.5%,12
CCOC(=O)C(NC(=O)CC(C)C)(Nc1sc2c(c1C(N)=O)CCCC2)C(F)(F)F (stereo not given),-11%,-5%,-1%,0.7,0,-2.8%,13

# Random excerpt: four compounds from above.
SMILES,gsp ag,Sfp inh,gsp antagonist,Menin-MLL FL inh,TRPV1 PAM,ClpP mod,CtBP-E1A blk
CCNS(=O)(=O)c1ccc(C(=O)OCC(=O)N2CCCc3ccccc32)cc1,1%,nt,-1%,nt,11,-1.2%,4
CC1(C)C(=O)C2(CCCCC2)C(=O)OC1c1cccc([N+](=O)[O-])c1 (stereo not given),-16%,4%,5%,1.0,-6,nt,-19
Cc1ccc(S(=O)(=O)CC(O)COc2ccc(F)cc2Cl)cc1 (stereo not given),-2%[15.4 µM],-2%,0%,-0.1,4,-1.6%,-18
O=C(Nc1cccc(S(=O)(=O)N2CCCCC2)c1)c1ccc([N+](=O)[O-])o1,28%,12%,9%,-2.1,-1,0.0%,-19

# Carrying on:
SMILES,gsp ag,Sfp inh,gsp antagonist,Menin-MLL FL inh,TRPV1 PAM,ClpP mod,CtBP-E1A blk
Cc1ccc(CNC(=O)CCCCn2c(=O)[nH]c3ccsc3c2=O)cc1,29%,6%,3%,-7.6,-26,-4.3%,nt
N#Cc1c(C(F)(F)F)cc(-c2cccs2)nc1N1CCCCC1,-2%[15.4 µM],-4%,9%,1.0,nt,-1.0%,3
Nc1nc2ccc(S(=O)(=O)N3CCCCC3)cc2s1,-4%,10µM*,3%,0.5,-11,-0.4%,-9
Cc1ccc(/C(N)=N/OC(=O)Oc2ccccc2)cc1,-30%,18%,-10%,0.2,8,2.1%,1
O=C(C(Cc1ccccc1)n1cccc1)N1CCCCC1 (stereo not given),-71%,5%,2%,0.7,-21,-1.6%,-6
COCc1cc(C)nc(SCC(=O)Nc2cc(C(F)(F)F)ccc2N2CCOCC2)c1C#N,-1%,7%,?,nt,-10,-11%,7
C[C@H]1CN([C@@H](C)CO)C(=O)CCCn2nncc2CO[C@H]1CN(C)C(=O)c1ccc(N2CCN(C)CC2)cc1,-52%[inhibitor],nt,nt,nt,nt,0.6%,0
COc1ccccc1C(=O)NNC(=O)C(=O)NC1CCCCC1,?,7%,-1%,-6.1,5,nt,35
CC(NC(=O)CN(C)Cc1nc2ccccc2c(=O)[nH]1)c1ccccc1 (stereo not given),-17%,-10%,-9%,-1.2,-16,0.0%,-6
COC(=O)Cc1ccc(NC(=S)N2CCCC(CO)C2)cc1 (stereo not given),-1%,-5%,13%,2.2,-29,0.2%,2
C=CCNc1nc(-c2ccc(Cl)cc2)cs1,29%,-2%,-8%,6.3,-5,-1.7%,-1
